Menin-MLL FL inh: inhibitors of human menin-MLL interaction, wild-type MLL peptide; Fluorescence polarization, fluorescein-MLL peptide displacement from menin; FP activity change, % at 61.4 µM; 290,000 tested, under 10 active; inconclusive = falling polarisation curve, or a change in total fluorescence; inactive = total fluorescence flat and polarisation flat or rising; no compound was filed as active; the % refers to the polarisation; negative = inhibition;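 also: % of control where 0% means no effect; inhibitors lower the polarisation; unlabelled MLL peptide was the positive control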
Sfp inh: inhibitors of Bacillus subtilis Sfp phosphopantetheinyl transferase | Potency, µM, for inactives: max response, negative = inhibition, usual class: inhibitors | Biochemical Sfp PPTase activity, qHTS | 3.5% of 310,000 active; active = well fitted inhibition curve with a large enough effect; inconclusive = small, poorly fitted or top-dose-only effect, or another doubt; inactive = no such curve, though single readings can be large or run the other way;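 also: the enzyme is Sfp with the accession as filed and its product quenches rhodamine fluorescence; potency is read from the fitted curve at half-maximal effect; 0% = enzyme reaction without inhibitor and -100% = no enzyme wells; top concentration of the series not given in the record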
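Reaction rates are the 30-min fluorescence difference (ex 525, em 598 nm) in wells containing 15 nM Sfp, 5 uM rhodamine-CoA and 12.5 uM BHQ-2-YbbR at pH 7.6 with 10 mM MgCl2.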
gsp antag: gsp mutant antagonism; gsp-mutant cells, cAMP HTRF, 30 min; control for the full effect not named in the record; Potency, µM (highest dose often 76.9 µM), without a hit: at the highest dose activity change, negative = inhibition, hits mostly inhibitors; 0.4% of 340,000 active; AID 624288; active = falling curve of any shape with a large fitted effect; inconclusive = falling curve, mostly with a smaller effect; inactive = flat or rising curve; cell line not stated here;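 also: intracellular cAMP measured with PDE inhibitor Ro 20-1724 present during compound exposure; potency is read from the fitted curve at half-maximal effect; % is scaled to controls: 0 for no effect and ±100 for the full control effect; nearly all actives have a fitted effect of over 65% in size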
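Cells in G418 medium, seeded 16-24 h, 37C; buffer exchange to DPBS + 1 mM CaCl2, 0.5 mM MgCl2, 0.05% BSA; cpds in DMSO + […] (300 uM stock), 30 min 37C; HTRF cAMP detection.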
CtBP-E1A inh: blocks the CtBP interaction with E1A. AlphaScreen GST-E1A/His-CtBP binding, 1536-well; active compounds read low; control for the full effect not named in the record. activity change, % (test concentration not listed). 0.49% of 340,000 active. AID 651724; in the data active means activity change below about -65%; inconclusive means about -30% to -65%; inactive means above about -30%; also: % is scaled to controls: 0 for no effect and ±100 for the full control effect
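AlphaScreen with 125 nM GST-E1A and 125 nM His-CtBP (5X stocks) in Tris pH 8.0, 300 mM NaCl, BSA, Tween 20, TCEP. Compounds preincubated 2 h at 37 deg C, then glutathione donor/nickel acceptor beads added for 1 h at 37 deg C in dark.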
TRPV1 PAM: enhances activation of the human vanilloid receptor TRPV1. Q8NER1. TRPV1-expressing cells, Fluo-8 calcium influx, capsaicin EC20 potentiation; host cell line not named in the record; control for the full effect not named in the record. potentiation, % at 8.33 µM. 0.02% of 320,000 active. AID 540277; active means potentiation above 80%; inconclusive means 30% to 80%; inactive means below 30%; also: 0% is about no effect
Target sequence (Q8NER1 whole entry, looked up): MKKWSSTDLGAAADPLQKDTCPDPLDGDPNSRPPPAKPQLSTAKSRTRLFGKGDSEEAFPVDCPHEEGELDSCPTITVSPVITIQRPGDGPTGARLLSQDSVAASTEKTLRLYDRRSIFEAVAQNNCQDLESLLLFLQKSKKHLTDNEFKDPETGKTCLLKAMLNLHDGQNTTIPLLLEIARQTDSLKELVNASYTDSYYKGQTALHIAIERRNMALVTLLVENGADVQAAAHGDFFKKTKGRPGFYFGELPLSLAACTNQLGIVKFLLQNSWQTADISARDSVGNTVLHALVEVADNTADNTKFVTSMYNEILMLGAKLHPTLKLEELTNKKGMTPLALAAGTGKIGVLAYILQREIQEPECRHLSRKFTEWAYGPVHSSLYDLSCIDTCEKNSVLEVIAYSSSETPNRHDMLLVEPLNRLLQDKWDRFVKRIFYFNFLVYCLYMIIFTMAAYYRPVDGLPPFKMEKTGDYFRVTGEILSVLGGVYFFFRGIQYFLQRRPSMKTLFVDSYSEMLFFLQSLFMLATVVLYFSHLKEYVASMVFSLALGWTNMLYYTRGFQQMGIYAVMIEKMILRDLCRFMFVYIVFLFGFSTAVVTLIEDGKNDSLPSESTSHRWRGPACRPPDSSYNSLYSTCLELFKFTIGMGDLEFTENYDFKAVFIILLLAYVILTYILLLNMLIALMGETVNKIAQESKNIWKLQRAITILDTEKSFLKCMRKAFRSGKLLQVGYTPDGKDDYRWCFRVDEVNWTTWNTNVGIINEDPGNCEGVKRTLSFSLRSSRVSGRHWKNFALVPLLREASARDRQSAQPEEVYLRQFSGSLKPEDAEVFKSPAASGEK
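Cells expressing TRPV1 were dye-loaded with Fluo-8 and read kinetically: 10 s baseline, 3 min after compound (agonist portion), then 2 min after EC20 capsaicin (allosteric enhancer portion). Calcium-bound dye fluorescence at 480/520 nm.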
ClpP mod: qHTS Assay for Activators of ClpP; ATP-dependent Clp protease proteolytic subunit (Bacillus subtilis (strain 168)), P80244; purified B. subtilis ClpP, FRET peptide cleavage, 20 min; Potency, µM (titrated, usually from 57.5 µM), for the others: at the top dose activity change, negative = active; 1.9% of 340,000 active; AID 651965, 2013; active = well fitted falling curve with a large enough effect; inconclusive = small, poorly fitted or top-dose-only effect; inactive = no such curve, though single readings can be large or run the other way; also: potency is read from the fitted curve at half-maximal effect; the source files actives as falling curves though it sought activators and does not explain the sign; nearly all actives have a fitted effect of over 65% in size; many hits overshoot -100%
Target sequence (P80244 whole entry, looked up): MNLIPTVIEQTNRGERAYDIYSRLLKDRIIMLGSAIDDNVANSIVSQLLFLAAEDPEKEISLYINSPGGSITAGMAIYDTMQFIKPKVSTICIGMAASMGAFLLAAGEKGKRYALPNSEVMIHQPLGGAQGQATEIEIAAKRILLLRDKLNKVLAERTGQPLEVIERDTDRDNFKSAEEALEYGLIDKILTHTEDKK
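Purified B. subtilis ClpP, 10 microg/mL final in Tris/HCl pH8 with KCl, BSA, glycerol and Tween-20, cleaved an Abz/nitrotyrosine-quenched decapeptide. Fluorescence (ex 320, em 430) was read at 0 and 20 min at room temperature. Delta was normalized to 5.8 microM ADEP and DMSO/no-enzyme controls.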
gsp ag: activates gsp, the McCune-Albright syndrome mutation; gsp mutant cells, cAMP HTRF, 30 min; control for the full effect not named in the record; AID 624287; 0.13% of 340,000 active; Potency, µM (highest dose often 76.9 µM), for the others: top-dose activation (cAMP increase), most hits filed as activators; active = well fitted activation curve with a large enough effect; inconclusive = small, poorly fitted or top-dose-only effect, or another doubt; inactive = no such curve, though single readings can be large or run the other way; cell line not stated here;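 also: phosphodiesterase inhibitor Ro 20-1724 added with compounds to block cAMP breakdown; potency is read from the fitted curve at half-maximal effect; nearly all actives have a fitted effect of over 60% in size; about a fifth of the inactives were tested at one dose only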
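Cells stably selected in G418 were plated at 2000/well, grown 16-24 hr, then given compounds in DMSO with the PDE inhibitor […] (300 uM solution added) for 30 min at 37C; cAMP was read by HTRF.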
Starred values were filed as active, the others as inactive; ? = inconclusive; nt = no result given; & = joins results of further samples; [ ] = another dose, or the depositor's remark. The order is random (roughly 5.3% active in at least one column).

The opening 6 entries as a preview:
| item | SMILES | Menin-MLL FL inh | Sfp inh | gsp antag | CtBP-E1A inh | TRPV1 PAM | ClpP mod | gsp ag |
| --- | --- | --- | --- | --- | --- | --- | --- | --- |
| 1 | O=S1(=O)CC(N2CCCCC2)C1CN1CCCCC1 (stereo not drawn) | nt | nt | nt | -10 | nt | -4.6% | 4% |
| 2 | COC(=O)c1cc(=O)c2cccc(OC)c2[nH]1 | 2.5 | 24% | 0% | nt | 14 | 3.7% | 32% |
| 3 | COc1ccc(S(=O)(=O)N2CCCC2)cc1C(=O)N1CCCCC1 | nt | 14% | 3% | -1 | -4 | -4.8% | 0% |
| 4 | CCN(CC)CCn1c2c(c(SCC(=O)Nc3ccc4c(c3)OCCO4)nc1=O)CCC2 | nt | nt | -1% | 6 | 2 | 2.1% | -18% |
| 5 | CC(C)CN1CC(C)C(=O)N(c2ccccc2)C1=S (stereo not drawn) | nt | nt | 5% | 2 | nt | nt | -2% |
| 6 | CC(C)(C)OC(=O)NCCc1nnc(SCc2ccccc2Cl)o1 | 1.8 | 17% | -6% | -6 | -15 | 0.5% | 0% |

Main list, repeating the preview:
| item | SMILES | Menin-MLL FL inh | Sfp inh | gsp antag | CtBP-E1A inh | TRPV1 PAM | ClpP mod | gsp ag |
| --- | --- | --- | --- | --- | --- | --- | --- | --- |
| 1 | O=S1(=O)CC(N2CCCCC2)C1CN1CCCCC1 (stereo not drawn) | nt | nt | nt | -10 | nt | -4.6% | 4% |
| 2 | COC(=O)c1cc(=O)c2cccc(OC)c2[nH]1 | 2.5 | 24% | 0% | nt | 14 | 3.7% | 32% |
| 3 | COc1ccc(S(=O)(=O)N2CCCC2)cc1C(=O)N1CCCCC1 | nt | 14% | 3% | -1 | -4 | -4.8% | 0% |
| 4 | CCN(CC)CCn1c2c(c(SCC(=O)Nc3ccc4c(c3)OCCO4)nc1=O)CCC2 | nt | nt | -1% | 6 | 2 | 2.1% | -18% |
| 5 | CC(C)CN1CC(C)C(=O)N(c2ccccc2)C1=S (stereo not drawn) | nt | nt | 5% | 2 | nt | nt | -2% |
| 6 | CC(C)(C)OC(=O)NCCc1nnc(SCc2ccccc2Cl)o1 | 1.8 | 17% | -6% | -6 | -15 | 0.5% | 0% |
| 7 | O=C(O)c1ccc(CNCc2ccc(Cl)cc2Cl)cc1 | 5.7 | 19% | -12% | -1 | 6 | 3.8% | -17% |
| 8 | CCCCNC(=O)c1ccc(Cn2c(=S)[nH]c3c([nH]c4ccc(OC)cc43)c2=O)cc1 | 1.3 | 10% | -2% | 3 | 8 | -1.6% | 0% |
| 9 | Cc1cc(O)c2c(c1)C(=O)[C@@]13Oc4c5c(c(O)c6c(O)cc(C)cc46)C(=O)C[C@H](O)[C@H]5[C@@H]1[C@@H](O)CC(=O)C3=C2O | nt | nt | -7% | -22 | nt | 1.4% | nt |
| 10 | Nc1nc(SCc2cccc(Br)c2)n[nH]1 | 0.1 | 4% | -7% | nt | -3 | 0.3% | -4% |
| 11 | Cc1ccc(NC(=O)Cn2c(=O)n(CCCC(=O)NCc3ccco3)c(=O)c3ccccc32)cc1 | 3.7 | 1% | 5% | 5 | 6 | 1.5% | -21% |
| 12 | CCN(CC)S(=O)(=O)c1ccc(N2CCOCC2)c(NC(=O)C2=COCCO2)c1 | nt | -12% | 0% | -5 | -1 | -2.0% | -50%[inhibitor] |
| 13 | Cn1c(SCC(=O)N2CCCc3ccccc32)nc2cccnc21 | 0.6 | 3% | -14% | 8 | 7 | 0.9% | 6% |
| 14 | CCN1CCN(Cc2ccc(NC(=O)c3cc(NC(=O)c4cc(-c5ccc(OC)cc5)n[nH]4)cc(OC)c3)cc2C(F)(F)F)CC1 | 3.5 | ? | 3% | -6 | 0 | -17% | nt |
| 15 | CCc1c(N=O)c(-c2ccccc2)n(O)[n+]1[O-] | nt | nt | nt | -2 | nt | -0.2% | ? |
| 16 | ON=C(CCc1ccccc1)c1ccccc1 | nt | nt | 5% | 20 | nt | -1.8% | -7%[15.4 µM] |
| 17 | CCCC1C2C(=O)N(c3ccc(OC)cc3)C(=O)C2ON1c1ccccc1 (stereo not drawn) | 0.0 | 5% | -16% | 9 | 4 | 1.2% | -19% |
| 18 | CN(C)/C=C/C(=O)c1ccccc1OCc1cnc(Cl)s1 | -0.2 | 10% | -12% | nt | 12 | 0.6% | 19% |
| 19 | COc1ccc(NC(=O)Cn2c(=O)oc3cc(S(=O)(=O)N4CCCC4)ccc32)cc1 | -3.0 | 11% | -11% | 1 | 15 | 1.8% | ? |
| 20 | COc1ccc(C)cc1NC(=O)CCC(=O)Nc1nnc(C(F)(F)F)s1 | 9.9 | 13% | 5% | 3 | 7 | -1.1% | 7% |
| 21 | CNS(=O)(=O)c1cccc(C(=O)NNC(=O)c2ccc(COc3ccccc3)cc2)c1 | 4.4 | 14% | 4% | 1 | 3 | nt | 29% |
| 22 | Cn1c(SC(C(=O)Nc2ccc(F)cc2)c2ccccc2)nc2ccccc21 (stereo not drawn) | 1.9 | -11% | ? | nt | -4 | 0.1% | 0% |
| 23 | COC(=O)/C=C/C(=O)Nc1ccc(O)c(Cl)c1 | -7.3 | -19% | ? | 1 | -3 | -3.4% | -43% |
| 24 | CC(=O)c1cccc(CN2CCCC(C(=O)c3ccc4c(c3)OCO4)C2)c1 (stereo not drawn) | 1.9 | -4% | -4% | -10 | -19 | nt | -5% |
| 25 | COc1ccc(CN2C(=O)C(CC(C)C)Nc3ncnc(N4CCN(c5ccccc5)CC4)c32)cc1 (stereo not drawn) | nt | nt | -3% | ? | -3 | -5.8%&-1.0% | nt |
| 26 | CC(C)Sc1cc(N2CCCC2)nc(-c2ccccc2)n1 | -2.3 | -7% | -8% | 32 | 28 | -12% | ? |
| 27 | CC(C)(C)c1ccc(C(=O)NNc2cc(N3CCCCC3)nc(N3CCCCC3)n2)cc1 | -3.3 | 2% | 13% | -11 | 19 | -1.5% | -1% |
| 28 | COc1cc(C=O)ccc1OS(=O)(=O)c1ccccc1[N+](=O)[O-] | 3.2 | -1% | -11% | 0 | 4 | nt | -7%[15.4 µM] |
| 29 | c1ccc(CCNc2nc(-c3ccncc3)cs2)cc1 | 3.2 | 19% | 4% | -2 | 0 | -2.5% | -2%[15.4 µM] |
| 30 | CCN(CC)S(=O)(=O)c1cc(C(=O)NCCN2CCOCC2)ccc1Cl | -0.2 | -2% | 0% | 5 | -2 | nt | -23% |
| 31 | Cc1ccccc1OCC(=O)Nc1c2c(nn1C(C)(C)C)CS(=O)(=O)C2 | nt | 8% | 16% | -8 | -4 | -1.1% | 0%[15.4 µM] |
| 32 | Cc1ccccc1N1C(=O)C(Oc2ccc(Cl)cc2)C1CNCC1CCCO1 (stereo not drawn) | -4.0 | 12% | -11% | nt | -3 | -1.2% | -12% |
| 33 | CCc1cccc2c(C(=S)N3CCOCC3)c[nH]c12 | -5.4 | 23% | 9% | 3 | 0 | nt | 20% |
| 34 | Cc1ccc(NS(=O)(=O)c2ccc(NC(=O)CN(c3cc([N+](=O)[O-])ccc3C)S(C)(=O)=O)cc2)c(C)c1 | 5.4 | 13% | -17% | -6 | -33 | 0.3% | -11% |
| 35 | CCN(C[C@H]1N[C@@](CC)(C(=O)OC)[C@H]2C(=O)N(Cc3ccccc3)C(=O)[C@@H]12)C(=O)Nc1ccc(Cl)cc1 | nt | nt | -1% | 3 | nt | 1.6% | nt |
| 36 | CCCCC[C@@H]1C=C(C(=O)O)[C@H](c2ccc3c(c2)OCO3)N1S(=O)(=O)c1ccc(C)cc1 | nt | nt | -17% | 1 | nt | 1.4% | nt |
| 37 | O=C(CS(=O)(=O)Cc1ccccc1)Nc1ccccn1 | 1.3 | 16% | 15% | 3 | 16 | -1.1% | ? |
| 38 | COc1ccc(C(=O)CSc2nc(-c3ccccn3)nc(C)c2Cl)cc1 | 6.4 | 3% | ? | -9 | ? | -1.8% | -10%[15.4 µM] |
| 39 | CCN(CC(=O)NCc1ccc(F)cc1)C(=O)/C=C/c1ccco1 | ? | 22% | 0% | nt | 8 | 1.0% | 16% |
| 40 | CCNc1nc(NC(C)C)nc(Oc2ccc(OCc3ccccc3)nn2)n1 | 0.4 | 8% | 14% | 1 | -2 | -1.4% | -1% |
| 41 | CNC(=O)c1ccc(NC(=O)c2cc(S(=O)(=O)N(C)C)ccc2N2CCCC2)cc1 | nt | nt | 5% | -5 | 1 | -7.0% | -29% |
| 42 | Cc1ccc(NS(=O)(=O)c2ccc(/C=C/C(=O)O)cc2)cc1Cl | -0.2 | 14% | -15% | 0 | 5 | nt | 5%[15.4 µM] |
| 43 | Cc1ccc(NC(=S)Nn2cnnc2)c(C)c1 | -1.6 | 40µM* | nt | nt | 8 | nt | nt |
| 44 | Cc1c(NS(=O)(=O)c2cccc(C(=O)OCC(=O)c3ccc(Cl)cc3)c2)c(=O)n(-c2ccccc2)n1C | nt | nt | ? | -3 | nt | -3.2% | -10% |
| 45 | Cn1c(COc2ccccc2)nnc1SCCC(=O)Nc1ccccc1 | 4.9 | 12% | -6%[15.4 µM] | -2 | 2 | -3.8% | 13% |
| 46 | COc1ccccc1CCC(=O)Nc1nc2ccccc2[nH]1 | 3.5 | 14% | 24% | 24 | -7 | -1.4% | -60%[inhibitor] |
| 47 | Cc1n[nH]c(=O)c2c(NC(=O)CSc3nn(-c4ccc(F)cc4)c(=S)s3)oc(C)c12 | nt | nt | -6% | -6 | 7 | -1.2% | 22% |
| 48 | COc1cc(/C=N/NC(=O)CNC(=O)/C=C/c2ccco2)cc(OC)c1OC | 3.2 | -4% | -1% | ? | 1 | nt | -5% |
| 49 | Cc1ccc(S(=O)(=O)N(C)C(C)CCc2ccco2)cc1 (stereo not drawn) | nt | nt | -15% | -5 | 6 | -0.6% | 14% |
| 50 | Cc1ccc2nc(SCC(=O)Nc3ccc4c(c3)OCCO4)[nH]c2c1 | -3.1 | 4% | -4% | -3 | -4 | -6.6% | -7% |
| 51 | COc1ccc(S(=O)(=O)N2CCCc3ccccc32)cc1OC | 3.8 | 8% | 14% | 19 | 17 | 2.1% | 1% |

Screening results as filed in PubChem BioAssay.
